Screens (PubChem BioAssay)
GLA inh pH 4.5 = qHTS Assay for Inhibitors of Human alpha-Galactosidase at pH 4.5; Alpha-galactosidase A (Homo sapiens), P06280; purified enzyme, 4-MU-alpha-Gal fluorescence, pH 4.5; activity change, negative = inhibition, % at 105 µM; 230,000 tested, under 10 active; AID 1467, 2008; inconclusive = small, poorly fitted or top-dose-only inhibition, or a rising curve; inactive = flat fitted curve, though single readings scatter; no compound was filed as active;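 further: 0% = full activity with enzyme and -100% = basal without enzyme; dose as in the result columns while the protocol names 77 µM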
Target sequence (P06280 whole entry, looked up): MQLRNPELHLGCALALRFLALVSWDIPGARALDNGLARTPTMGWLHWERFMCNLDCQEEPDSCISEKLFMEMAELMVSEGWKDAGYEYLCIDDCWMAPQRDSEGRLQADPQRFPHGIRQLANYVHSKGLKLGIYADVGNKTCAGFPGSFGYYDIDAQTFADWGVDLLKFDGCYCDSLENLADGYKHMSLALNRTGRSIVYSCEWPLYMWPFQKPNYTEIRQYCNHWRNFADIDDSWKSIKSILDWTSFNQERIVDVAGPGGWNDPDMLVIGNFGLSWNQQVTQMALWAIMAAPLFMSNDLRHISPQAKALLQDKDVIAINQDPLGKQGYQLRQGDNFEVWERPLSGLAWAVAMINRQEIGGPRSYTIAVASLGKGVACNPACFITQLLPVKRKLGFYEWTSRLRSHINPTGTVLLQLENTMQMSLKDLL
Rango-impB inh = qHTS Assay for Inhibitors of Rango (Ran-regulated importin-beta cargo) - Importin beta complex formation; Rango CFP/YFP FRET sensor + importin beta, 45 min; Potency, µM (highest dose often 92.2 µM), for inactives: at the top dose inhibition of complex formation; 0.031% of 340,000 active; active = rising FRET ratio curve, often small or poorly fitted; inconclusive = mostly compound fluorescence or quenching in the first reads; inactive = flat curves in all reads;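 further: potency means the concentration at half of the fitted maximal effect; 0% = DMSO wells and 100% = buffer wells lacking importin beta; nearly all actives have a fitted effect of over 15% in size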
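FRET biosensor Rango (snurportin 1 IBB between N-terminal EYFP and C-terminal Cerulean), 50 nM in PBS/1 mM DTT/0.02% Tween-20/0.1% BSA, preincubated 5 min RT with compound; 0.125 microM importin beta added, 45 min RT, CFP/YFP FRET ratio read.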
miR-21 FLuc = qHTS Assay for Modulators of miRNAs and/orActivators of miR-21; HeLa miR-21 FLuc reporter, luciferase, 48 h; Potency, µM (highest dose often 38.3 µM), for the others: at the top dose reporter change, positive = more light; 340,000 tested, under 10 active; active = well fitted rising curve with a large enough effect; inconclusive = small, poorly fitted or top-dose-only effect; inactive = no such curve, though single readings can be large or run the other way;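 further: % of control where 0% means no effect; miR-21 action dims this reporter so a rising signal means less miR-21 action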
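Luminescence from a firefly luciferase reporter carrying a miR-21 binding site downstream, stably expressed under a CMV promoter in HeLa cells that make miR-21 endogenously, reports miRNA modulation after 48 h compound exposure up to approximately 40uM final.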
Rango dissoc inh = qHTS Assay for Inhibitors of RanGTP induced Rango (Ran-regulated importin-beta cargo) - Importin beta complex dissociation; Snurportin-1 (Homo sapiens) + GTP-binding nuclear protein Ran (Homo sapiens) + Importin …; Biochemical FRET Rango-importin beta, RanGTP-induced dissociation; Potency, µM (top dose mostly 46.1 µM), for inactives: at the top dose activity change, negative = inhibition; 0.071% of 340,000 active; active means falling FRET ratio curve, often poorly fitted, with flat reads before Ran was added; inconclusive means other falling curves, or compound fluorescence or quenching; inactive means flat or rising ratio curve;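 further: potency means the concentration at half of the fitted maximal effect; % of control where 0% means no effect; nearly all actives have a fitted effect of over 45% in size; -100% = wells without RanGTP and RCC1; the record marks most hits as doubtful in a second field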
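Rango/importin beta premix (0.1/0.25 uM final), PBS + 1 mM DTT + 0.02% Tween-20 + 0.1% BSA; cpd 5 min RT; FRET pre-read; + RanGTP-RCC1 (0.6 uM Ran, 2 mM GTP, 0.2 uM RCC1); 45 min RT; FRET post-read, ex 430, em 486/530 nm.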
An asterisk follows results filed as active; ? = inconclusive; · = no result given; & = joins results of further samples; [ ] = remark or other dose. Not all compounds are listed; count on the stated rates, not on these rows.

GLA inh pH 4.5	Rango-impB inh	miR-21 FLuc	mol	Rango dissoc inh
4.5	?	-3.4%	O=C1S/C(=C/c2ccc(N3CCOCC3)o2)C(=O)N1Cc1c(F)cccc1Cl	?
·	5.4%	-0.3%	O=C(c1cccs1)N(Cc1cc2ccccc2[nH]c1=O)CC1CCCO1 (stereo unspecified)	2.7%
-9.9	2.7%	-37.8%	CC(CC(=O)N1CCc2ccccc21)c1ccccc1 (stereo unspecified)	9.1%
3.5	-0.3%	-0.7%	CCC(=O)Nc1cccc2cccnc12	-7.0%
5.7	-1.2%	-25.2%	CCOc1ccccc1C1C2CCCCC2(O)CCN1C(=O)c1cccs1 (stereo unspecified)	6.9%
-13.5	2.8%	7.5%	COc1ccc(CCNC(=O)c2ccc(CSc3ccccc3)o2)cc1	0.9%
2.5	-5.2%	3.1%	CC(=O)N1C(Nc2ccc(Cl)cc2)CCN1c1ccccc1 (stereo unspecified)	3.3%
·	3.0%	1.5%&28.3%	COc1ccc(N2CCN(CC(O)COc3ccc(C)cc3C)CC2)cc1 (stereo unspecified)	1.2%
-18.1	0.9%	-4.3%	CCC(C)(C)C1CCc2nc3ccccc3c(C(=O)OC(C)C(=O)Nc3c(C)n(C)n(-c4ccccc4)c3=O)c2C1 (stereo unspecified)	6.2%
·	0.6%	·	COc1ccc(C(=O)c2cn(-c3cccc(Br)c3)nc2C(C)=O)cc1	-7.0%
·	-4.2%	·	CNC(=O)c1ccc(NC(=O)CCc2c(C)noc2C)cc1	-29.1%
4.6	3.7%	-4.8%	CCc1ccc(N2CC(C(=O)Nc3cccnc3)CC2=O)cc1 (stereo unspecified)	5.9%
-2.0	?	-0.1%	Cc1ccc(/C=C2\SC(=S)N(c3cccnc3)C2=O)o1	-14.4%
1.5	-0.3%	-7.0%	O=S(=O)(NCCc1cn2ccccc2n1)c1ccc2c(c1)OCCO2	-8.8%
3.8	2.7%	-18.2%	COc1ccc(NC(=O)CSc2ncnc3c2cnn3CCc2ccccc2)cc1	-9.6%
10.0	-1.9%	-5.1%	Cc1sc(NC(=O)c2ccccc2)c(C(=O)NC(C)C)c1C	-5.7%
-5.6	1.7%	27.0%	O=C(Nc1cccc(C(F)(F)F)c1)N1CCC(c2nc(-c3ccc(F)cc3)no2)CC1	-17.0%
·	-1.5%	-3.4%	CCOc1ccc(C2C(C(=O)c3ccco3)=C(O)C(=O)N2CCCn2ccnc2)cc1OCC (stereo unspecified)	12.6%
·	-0.1%	2.3%	Cc1nc2sc3c(=O)[nH]nnc3c2c(C)c1Br	1.3%
0.5	7.3%	-6.7%	COc1ccc(OC(=O)c2ccc3nsnc3c2)cc1	2.3%
-0.5	?	4.2%	CC(C)C12CN3CC(C(C)C)(CN(C1)C3c1ccc([N+](=O)[O-])o1)C2=O (stereo unspecified)	-5.8%
3.9	-1.5%	1.4%	CC(=O)NCCn1c(SCC(=O)NCCC2=CCCCC2)nc2ccccc2c1=O	0.0%
-23.5&-5.9	-3.9%	-3.9%	COCCn1c(C(=O)N2CCCC2)cc2c1C[C@H]1CN(C(=O)c3ccccc3)[C@@](Cc3ccc(F)cc3)(C(=O)OC)[C@@H]21	-0.7%
0.3	-0.2%	7.7%	Cc1ccc(NC(=O)CSc2ncnc3ccccc23)cc1S(=O)(=O)N1CCOCC1	-12.5%
6.6	-0.9%	0.7%	Cc1cc(C)n(-c2cc(O)c(-n3nc(C)cc3C)cc2O)n1	4.8%
1.4	1.7%	4.0%	Cn1cc(S(=O)(=O)NCc2cccs2)c(=O)n(C)c1=O	0.4%
4.1	·	-1.0%	CC(C)(C)C(=O)/C(C#N)=c1\s/c(=C\c2ccncc2)c(=O)n1CCCN1CCOCC1	·
5.5&-2.8	-1.2%	·	Nc1ccc(S(=O)(=O)Nc2nccs2)cc1	18.7%
-20.2	0.0%	0.3%	Cc1ccc(S(=O)(=O)N2CCOCC2)cc1NC(=O)c1cc2c(s1)CCC2	-3.7%
2.9	-1.5%	-0.1%	CN(c1ccccc1)S(=O)(=O)c1ccc(C(=O)NCc2cccs2)cc1	-0.9%
·	0.5%	·	Cc1ccc(S(=O)(=O)N2CCN(C(=O)Cn3c(=O)cnc4ccccc43)CC2)cc1	-5.8%
·	3.4%	·	C[C@@H](NC(=O)c1[nH]cnc1C(=O)Nc1ccccc1)c1ccccc1	4.3%
-14.2	-1.0%	25.5%	CCn1c(N2CCN(S(=O)(=O)c3ccccc3C(F)(F)F)CC2)nc2ccccc21	0.5%
·	0.4%	-5.4%	CCOc1ccc(CCNS(=O)(=O)c2ccc3c(c2)NC(=O)CO3)cc1OCC	-3.9%
-5.4	-0.1%	-0.1%	CCc1ccc(-n2c(=S)sc3c(=O)n(-c4ccccc4OC)c(=S)[nH]c32)cc1	0.2%
6.0	1.2%	-5.7%	CC[C@H](C)[C@H](NC(=O)c1ccccc1)C(=O)Nc1ccc(S(=O)(=O)Nc2cc(C)nc(C)n2)cc1	-8.2%
3.2	3.6%	-43.4%	FC(F)Sc1ccc(Nc2ncnc3nc[nH]c23)cc1	17.0%
·	4.4%	·	O=C(CCNS(=O)(=O)c1cccc(C(F)(F)F)c1)NCc1ccco1	29.8%
-20.6	5.9%	-0.3%	C/C(=N/NC(=O)c1cc(-c2ccc(Br)s2)[nH]n1)c1ccco1	2.3%
-4.7	5.3%	20.1%	O=C(c1ccc(CNS(=O)(=O)c2ccccc2)cc1)N1CCN(Cc2ccccc2)CC1	-5.2%

Another view of 15 compounds above.
Second line of a record – GLA inh pH 4.5, Rango-impB inh, miR-21 FLuc, Rango dissoc inh
- Cc1cc(C)n(-c2cc(O)c(-n3nc(C)cc3C)cc2O)n1
    6.6, -0.9%, 0.7%, 4.8%
- Cn1cc(S(=O)(=O)NCc2cccs2)c(=O)n(C)c1=O
    1.4, 1.7%, 4.0%, 0.4%
- CC(C)(C)C(=O)/C(C#N)=c1\s/c(=C\c2ccncc2)c(=O)n1CCCN1CCOCC1
    4.1, ·, -1.0%, ·
- Nc1ccc(S(=O)(=O)Nc2nccs2)cc1
    5.5&-2.8, -1.2%, ·, 18.7%
- Cc1ccc(S(=O)(=O)N2CCOCC2)cc1NC(=O)c1cc2c(s1)CCC2
    -20.2, 0.0%, 0.3%, -3.7%
- CN(c1ccccc1)S(=O)(=O)c1ccc(C(=O)NCc2cccs2)cc1
    2.9, -1.5%, -0.1%, -0.9%
- Cc1ccc(S(=O)(=O)N2CCN(C(=O)Cn3c(=O)cnc4ccccc43)CC2)cc1
    ·, 0.5%, ·, -5.8%
- C[C@@H](NC(=O)c1[nH]cnc1C(=O)Nc1ccccc1)c1ccccc1
    ·, 3.4%, ·, 4.3%
- CCn1c(N2CCN(S(=O)(=O)c3ccccc3C(F)(F)F)CC2)nc2ccccc21
    -14.2, -1.0%, 25.5%, 0.5%
- CCOc1ccc(CCNS(=O)(=O)c2ccc3c(c2)NC(=O)CO3)cc1OCC
    ·, 0.4%, -5.4%, -3.9%
- CCc1ccc(-n2c(=S)sc3c(=O)n(-c4ccccc4OC)c(=S)[nH]c32)cc1
    -5.4, -0.1%, -0.1%, 0.2%
- CC[C@H](C)[C@H](NC(=O)c1ccccc1)C(=O)Nc1ccc(S(=O)(=O)Nc2cc(C)nc(C)n2)cc1
    6.0, 1.2%, -5.7%, -8.2%
- FC(F)Sc1ccc(Nc2ncnc3nc[nH]c23)cc1
    3.2, 3.6%, -43.4%, 17.0%
- O=C(CCNS(=O)(=O)c1cccc(C(F)(F)F)c1)NCc1ccco1
    ·, 4.4%, ·, 29.8%
- C/C(=N/NC(=O)c1cc(-c2ccc(Br)s2)[nH]n1)c1ccco1
    -20.6, 5.9%, -0.3%, 2.3%

The results go on.
GLA inh pH 4.5	Rango-impB inh	miR-21 FLuc	mol	Rango dissoc inh
-0.5	0.0%	-1.9%	O=C(c1c[nH]c(=O)n(-c2ccccc2)c1=O)N1CCc2ccccc21	-8.4%
·	0.2%	-1.2%	Cc1ccccc1C(=O)Nc1c(C)[nH]c(=O)[nH]c1=O	-19.0%
·	5.3%	-4.2%	COc1ccc(NC(=O)CN(C)C(=O)CCc2ccccc2)cc1	-11.0%
6.8[21.1 µM]	-2.9%	6.2%	O=C(CCn1c(=O)c2ccccc2n(CC(=O)N2CCN(c3ccccc3)CC2)c1=O)NCc1ccco1	0.7%
-1.8	4.0%	-26.5%	Cc1ccccc1NC(=O)c1csc2c1CCCC2	6.5%
4.5	1.6%	0.1%	O=S(=O)(NCc1ccccn1)c1ccc(Cl)s1	-14.5%
0.5	3.6%	-8.0%	Cc1cc(C(=O)Nc2c(C)n(C)n(-c3ccccc3)c2=O)cs1	19.8%
·	4.4%	0.0%	CN(CCc1ccccn1)C(=O)CCC1CCCN(C(=O)c2c(F)ccc(F)c2F)C1 (stereo unspecified)	-2.1%
0.9	-0.5%	-1.6%	CCN(CC)CCNS(=O)(=O)c1ccc(OC)c(Br)c1	11.5%
1.0	1.2%	1.8%	COc1cc(N(C)C)c([N+](=O)[O-])cc1C(=O)N1CCOCC1	19.7%
·	14.8%	·	COc1ccc(C(CNC(=O)c2cc3ccccc3o2)N2CCCC2)cc1 (stereo unspecified)	-15.5%
·	-1.2%	·	CCOC(=O)N1CCN(c2ccc(S(=O)(=O)N3CCOCC3)cc2[N+](=O)[O-])CC1	-1.8%
·	-2.5%	·	Cc1cccc(-n2ccnc2SCC(=O)c2c(N)n(C3CC3)c(=O)[nH]c2=O)c1C	1.3%
·	-0.7%	7.6%	CCOc1ccccc1NC(=O)NNC(=O)c1ccc2ccccc2c1	-0.5%
·	-0.1%	·	COc1ccc(C(=O)COC(=O)Cn2[nH]c(=O)c3ccccc3c2=O)c(OC)c1	-3.6%
1.1	-3.2%	-5.8%	Cc1cc(C)n(C(=O)c2ccc(NC(=O)C3CC3)cc2)n1	12.2%
2.1	-2.4%	-2.2%	O=C(CN1CCOc2ccccc21)NC1CCN(Cc2ccccc2)CC1	-19.4%
·	-0.3%	·	Cc1nc(NC(=O)COC(=O)/C=C/c2ccco2)c(Cl)cc1Cl	-17.7%
2.9	?	-30.9%	Cc1nc2ccccc2nc(C)c1=NO	10.1%
2.9	-0.3%	-20.1%	CC(N)(C(=O)O)c1cccc(OCc2cccc(Cl)c2)c1 (stereo unspecified)	-2.2%
-0.5	2.1%	-7.9%	CCCS(=O)(=O)N1CCCC(C(=O)NCCN(CC)c2ccccc2)C1 (stereo unspecified)	1.4%
6.6	0.7%	-5.7%	C=CCSc1nnc(NC(=O)COc2ccccc2)s1	-0.4%
·	?	-20.1%	CC(=O)Nc1ccc(NC(=O)CCCc2ccccc2)cc1	-1.5%
8.4	0.2%	1.5%	O=C1CN(C(=O)CSc2nnc(-c3ccccc3)n2Cc2ccc3c(c2)OCO3)c2ccccc2N1	-0.5%
-0.8	-4.5%	-7.5%	O=C(NC1CCSC1=O)c1ccccc1 (stereo unspecified)	7.4%
-3.1	-1.6%	-12.6%	CCC(=O)n1nc(-c2ccccc2)nc1SCC(=O)Nc1ccc(C)cc1	14.1%
2.0	5.7%	9.4%	COc1ccc2c(C)cc(N3CCCCCC3)nc2c1	-0.5%
·	2.1%	8.0%	Cc1ccc(CNC(=O)c2ccc(N3CCC4(CC3)CC(c3ccccc3)=NO4)c(NC(=O)c3ccc(Br)cc3)c2)cc1	34.4%
-9.9	-0.1%	-5.2%	COc1ccc(C(=O)NC(=S)Nc2ccccc2N2CCN(S(C)(=O)=O)CC2)cc1OC	-1.7%
